Source: PubChem BioAssay
BJeLR viability: kills HRASV12-expressing BJeLR cells | BJeLR (HRASV12) viability, CellTiter-Glo ATP luminescence, 48 h; reference of the scale not given here | inhibition, % (concentration not given with the values) | actives 0.17% (n = 300,000);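 active = replicate mean above 50%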;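 note: 50 nL library stock added to about 25 µL; numbers are from one replicate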
RN4220 kill: kills Staphylococcus aureus RN4220; inhibition, % (no concentration beside the values); AID 1259311; actives 0.33% (n = 330,000); S. aureus RN4220 growth, OD600, 16 h;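 active = z-score of -3 or lower and OD600 up to 0.18 on both plates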;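 note: plate controls were untreated cells for no effect and reference antibiotic for full effect; stock transfer was 100 nL into about 80 µL; one replicate is shown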
Autofluor counter: compound fluorescence in toxin protease inhibitor counterscreen. compound autofluorescence counterscreen, microsphere flow cytometry; hits give high values. fluorescence intensity (concentration not given with the values). actives 3.1% (n = 360,000). AID 624483;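 active = at least 3 SD above the mean of all compounds, about 16000 in these data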;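 note: 100 nL of 1 mM stock went into each well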
PrP 5UTR inh: inhibition of PrP 5' UTR reporter expression. actives 0.35% (n = 340,000). cell-based PrP 5' UTR mRNA reporter, plate reader. AID 488862. inhibition, % (no concentration beside the values);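 active = every replicate at 50% or more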;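 note: 0 = median of the neutral control wells; tested in H4 reporter cells; numbers are from one replicate; inactives centre near -14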
Sa ugtP lethal: growth inhibition of S. aureus ugtP deletion strain | S. aureus RN4220 ugtP deletion, OD600 growth, 16 h; some inactives read as strong as hits | growth inhibition, % (test concentration not listed) | actives 0.54% (n = 330,000);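 active = z-score under -3 and OD600 up to 0.15 on both plates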;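 note: plate controls were untreated wells for no effect and antibiotic for full effect; wells of about 80 µL received 100 nL stock; the first replicate is given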
Mtb hypoxia rep: Mtb hypoxia fluorescent reporter inhibition | M. tuberculosis hypoxia-regulated fluorescent reporter, fluorescence | fluorescence inhibition, % (test concentration not listed) | actives 0.1% (n = 300,000) | AID 1159583;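 active = 35 to 45% if threefold the growth effect, above 45% if 1.5-fold the growth effect; inactive = the rest, general growth blockers included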;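 note: wells of about 50 µL received 100 nL stock; 0% = vehicle wells and 100% = reference inhibitor wells; whole bacteria with a GFP reporter of the hypoxia response; strong numbers were not always called active; many hits fall short of the cut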
Mtb hypoxia rep growth: recorded beside Mtb hypoxia rep, whose call it bears; growth inhibition, %; measured here: M. tuberculosis growth (absorbance);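 0% = vehicle and 100% = reference antibiotic; read after six days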
The depositor's hits bear a star; · = no result given.

SMILES | BJeLR viability | RN4220 kill | Autofluor counter | PrP 5UTR inh | Sa ugtP lethal | Mtb hypoxia rep | Mtb hypoxia rep growth
COc1cc(/C=N/NC(=O)c2cc(-c3cccs3)nc3ccccc23)ccc1O | -11 | · | 4369 | -2 | · | · | ·
Cc1ccc2nc(-c3ccc(NC(=O)CSCC(=O)O)cc3)sc2c1 | -15 | 2.6 | 4739 | · | 7 | 3 | 9
O=C(CN1CCCCCCC1)NC(=O)NC1CCCCC1 | 1 | 5.0 | 3566 | -11 | 8 | 16 | 4
Cc1cccc(N2CC(C(=O)O)CC2=O)c1 (configuration not stated) | -3 | 2.4 | 9697 | -30 | 5 | 12 | -3
CC(c1ccccc1)C1C(C#N)=C(N)SC(N)=C1C#N (configuration not stated) | -2 | -0.6 | 2854 | -21 | -3 | · | ·
COC(=O)NC(NC(=S)Nc1ccccc1OC)C(Cl)(Cl)Cl (configuration not stated) | -4 | 1.2 | 8747 | -35 | -3 | -4 | -3
Cc1ccc(Cn2c(SCC(=O)N3CC(=O)Nc4ccccc43)nc3ccccc3c2=O)cc1 | -1 | -4.3 | 2842 | -34 | -13 | 5 | 3
CCCCN(C(=O)CSc1nc(CCC)cc(=O)[nH]1)c1c(N)n(Cc2ccccc2)c(=O)[nH]c1=O | · | -1.2 | 2897 | -16 | -7 | -3 | -7
CCOC1(OCC)N=C(N)C2(C#N)C(c3cccc(C)c3)C12C#N (configuration not stated) | 1 | 9.2 | 3326 | -10 | 9 | 11 | 6
CCC(=NNc1ccccc1Cl)c1cnnc(-c2ccccc2)n1 | · | 3.4 | · | · | 6 | 11 | 2
COc1ccc(CCN=C(C)C2=C(O)C(c3ccccc3)OC2=O)cc1OC (configuration not stated) | 1 | 1.8 | 4342 | -21 | 5 | 0 | 4
O=C(NC1CCCCC1)C(c1cccs1)N(CCCN1CCOCC1)C(=O)c1ccc(-c2ccccc2)[nH]1 (configuration not stated) | 6 | -2.5 | 4848 | -6 | -2 | -5 | 11

Complete entries, quoted from the list. Values in the order: BJeLR viability, RN4220 kill, Autofluor counter, PrP 5UTR inh, Sa ugtP lethal, Mtb hypoxia rep, Mtb hypoxia rep growth
`COc1ccc(CCN=C(C)C2=C(O)C(c3ccccc3)OC2=O)cc1OC` (configuration not stated) as listed: 1, 1.8, 4342, -21, 5, 0, 4
`CC(c1ccccc1)C1C(C#N)=C(N)SC(N)=C1C#N` (configuration not stated) as listed: -2, -0.6, 2854, -21, -3, ·, ·
`CCCCN(C(=O)CSc1nc(CCC)cc(=O)[nH]1)c1c(N)n(Cc2ccccc2)c(=O)[nH]c1=O` as listed: ·, -1.2, 2897, -16, -7, -3, -7
`Cc1ccc2nc(-c3ccc(NC(=O)CSCC(=O)O)cc3)sc2c1` as listed: -15, 2.6, 4739, ·, 7, 3, 9
`Cc1cccc(N2CC(C(=O)O)CC2=O)c1` (configuration not stated) as listed: -3, 2.4, 9697, -30, 5, 12, -3

Reprinted at random: 2 entries already listed.
SMILES | BJeLR viability | RN4220 kill | Autofluor counter | PrP 5UTR inh | Sa ugtP lethal | Mtb hypoxia rep | Mtb hypoxia rep growth
O=C(NC1CCCCC1)C(c1cccs1)N(CCCN1CCOCC1)C(=O)c1ccc(-c2ccccc2)[nH]1 (configuration not stated) | 6 | -2.5 | 4848 | -6 | -2 | -5 | 11
CCC(=NNc1ccccc1Cl)c1cnnc(-c2ccccc2)n1 | · | 3.4 | · | · | 6 | 11 | 2

The list goes on:
SMILES | BJeLR viability | RN4220 kill | Autofluor counter | PrP 5UTR inh | Sa ugtP lethal | Mtb hypoxia rep | Mtb hypoxia rep growth
Cc1cc(C)cc(C(=O)N2CCC(CCC(=O)NC3CC3)CC2)c1 | 2 | 2.0 | 4366 | 6 | 6 | -1 | -6
CN1CCOCCOCCOCCN(C)C1=S | 2 | 2.5 | 4513 | -18 | 1 | 19 | 3
CCN(c1ccccc1)S(=O)(=O)c1ccc(C(=O)N(C)Cc2cccs2)cc1 | · | 6.7 | 3712 | -20 | 5 | 2 | 1
O=C(CCN1C(=O)S/C(=C\c2ccccc2)C1=O)NC1CCS(=O)(=O)C1 (configuration not stated) | 14 | 4.4 | 5762 | -24 | 9 | 6 | 2
Cn1c(SCc2ccccc2)nnc1-c1cccs1 | 1 | -6.0 | 3333 | -76 | -3 | · | ·
CCN(CC)C(=O)c1cc2cc([N+](=O)[O-])ccc2s1 | 0 | 0.1 | 4886 | -3 | -4 | · | ·
COc1ccccc1N1CCN(CCC(=O)Nc2ccc3c(c2)OCO3)CC1 | -6 | 1.0 | 4187 | -10 | 0 | 1 | 4
CCN(C#N)c1nc(NC(C)C)nc(NC(C)C)n1 | 5 | 6.3 | 8014 | 2 | 8 | 3 | 5
Cc1ccnc(NC(=O)c2cccc(OC(F)F)c2)n1 | -6 | -0.3 | 2883 | -18 | -3 | 4 | -2
CCOC(=O)N1CCN(C(=O)CSc2nc(C)nc3c2c(=O)n(C)c(=O)n3C)CC1 | 3 | 4.9 | 4344 | -19 | 15 | 8 | 8
O=C(c1ccc(COc2ccccc2Br)o1)N1N=C(C(F)F)CC1(O)C(F)F (configuration not stated) | -11 | 5.1 | 2454 | -3 | -5 | 5 | 7
CCOc1ccc(-c2nc3scc(-c4cccs4)c3c(=O)[nH]2)cc1 | 3 | -0.6 | 4284 | -32 | 7 | -7 | -5
Cc1cc(C(=O)c2cnc(/N=C/N(C)C)s2)c(F)cc1Cl | 0 | · | 4308 | -16 | · | · | ·
Cc1[nH]c2ccccc2c1C(=O)CN1C(=O)NC2(CC(C)CC(C)(C)C2)C1=O (configuration not stated) | 10 | 4.7 | 8997 | -9 | -20 | 6 | 9
Cc1cc(C(=O)CSc2nnnn2C)c(C)n1C1CC1 | -7 | 11 | 4362 | -45 | 3 | 18 | 4
CC(C)Sc1nc(N2CCOCC2)c2c3c(sc2n1)COC(C)(C)C3 | 3 | 2.4 | 4252 | 1 | 19 | 1 | 1
O=C(CCOc1ccccc1)Nc1ccnn1C1CCN(Cc2ccc(F)cc2)CC1 | 7 | -1.7 | 5821 | 1 | -4 | 0 | 12
CC(C)Cn1c(=O)c(C(=O)Nc2cnccn2)c(O)c2ccccc21 | -15 | 5.0 | 2459 | -6 | -1 | 3 | 6
COCCn1nnnc1C(c1cccc(OC)c1OC)N1CCN(C(=O)c2ccco2)CC1 (configuration not stated) | -5 | 5.4 | 5884 | -16 | 5 | 3 | 13
CC(=O)c1ccc(NC(=O)C2CCCN2S(=O)(=O)c2cccc3cccnc23)cc1 (configuration not stated) | -4 | -1.2 | 4107 | -5 | 4 | · | ·
COc1ccc(CC(=O)NCC(=O)Nc2ccccc2Br)cc1 | 3 | -2.8 | 2955 | -6 | 2 | 5 | 0
CS/C(=C(/C#N)S(=O)(=O)c1ccc(Cl)cc1)N1CCOCC1 | -2 | 2.9 | 6103 | -6 | 3 | 8 | 6
NS(=O)(=O)c1cc(C(=O)OCC(=O)NC2CC2)ccc1Cl | 2 | 2.2 | 2175 | -3 | -3 | · | ·
O=C(Nc1cccc2ncccc12)c1cccc(F)c1 | -9 | 3.4 | 11182 | 1 | -2 | -10 | -12
COc1ccc(C=NNC(=O)C2CCCC2)cc1Br | · | 0.6 | · | · | 1 | 12 | 11
CC1CCN(S(=O)(=O)c2cccc(C(=O)Nc3ccccn3)c2)CC1 | 4 | 3.8 | 10089 | -16 | -2 | 3 | -2
CC1(C)CC(=O)C=C(NCc2ccccc2)C1 | -5 | 1.6 | 9398 | -9 | 6 | 2 | 2
CC1C(=O)O[C@@H]2C[C@@H](C)[C@@H]3CCC(=O)[C@@]3(C)[C@@H](O)[C@H]12 (some centres not stated) | 2 | · | 3775 | -19 | · | · | ·
O=C(CCN1C(=O)S/C(=C/c2ccccc2)C1=O)Nc1ccc(C(=O)O)c(O)c1 | 0 | 4.5 | 5232 | -12 | 2 | · | ·
O=C(CSc1nc2ccccc2o1)Nc1ccccc1 | 3 | 4.6 | 15958 | -20 | 5 | 3 | 3
COc1ccc(OC)c(S(=O)(=O)Nc2ccc(O)c3ccccc23)c1 | -2 | 9.2 | 2450 | -7 | 9 | 5 | 0
Cc1ccnn1-c1ccc(C(=O)N2CCCN(S(=O)(=O)c3ccc(F)cc3)CC2)cc1 | · | 3.7 | 5322 | 3 | 3 | -1 | -4
NS(=O)(=O)c1ccc(NC(=O)Cn2nc(C(=O)O)c3ccccc3c2=O)cc1 | -6 | -1.8 | 3384 | -12 | 7 | 1 | -4
CN(C)c1ccc(C(=O)NCC(c2cccs2)N2CCOCC2)cc1[N+](=O)[O-] (configuration not stated) | 0 | 1.6 | 6087 | -25 | -1 | -7 | 9
O=S(=O)(NCc1cccnc1)c1cccc2nsnc12 | 3 | 1.0 | 15697 | -5 | 2 | -2 | -2
COC(=O)c1cc(O)cc(OC)c1C(=O)c1c(O)cc(C)cc1O | -5 | -1.0 | 4202 | -18 | 3 | · | ·
Cc1nn(C)c(Cl)c1C(=O)NCC(=O)NCc1ccccc1 | -11 | 2.7 | 4265 | -16 | 4 | 16 | 7
O=C(N/N=C\c1cc([N+](=O)[O-])ccc1N1CCCC1)c1ccccn1 | -7 | · | 2053 | -30 | · | · | ·
CCC(Sc1nc(=O)cc(N)n1CCc1ccccc1)C(=O)Nc1ccccc1C#N (configuration not stated) | -7 | -1.3 | 3345 | 4 | 1 | · | ·
Cc1cccnc1NC(=O)c1cccc(S(=O)(=O)N2CCN(c3ccccc3)CC2)c1 | -6 | -0.2 | 6285 | -21 | 1 | 7 | 0
Cc1c(NC(=O)Nc2cc(F)c(F)cc2Cl)c(=O)n(-c2ccccc2)n1C | -9 | 3.5 | · | · | 9 | 7 | -1
Nc1nnc(SCc2cc3c(cc2Cl)OCO3)s1 | 3 | 7.0 | 4106 | -25 | 0 | 5 | 7
CN(C)CCOC(=O)Cc1ccc(Cl)cc1 | -14 | 0.9 | 4037 | -8 | 16 | 14 | 7
CCC(C)(C)C1CCc2c(sc(NC(=O)c3ccccc3C(=O)O)c2C#N)C1 (configuration not stated) | 10 | -0.6 | 4225 | -40 | 28 | 14 | 11
O=C(NCc1ccccc1)c1ccc(-c2ccccc2C(F)(F)F)o1 | 6 | 0.2 | 4034 | -22 | 9 | 5 | 8
COc1ccc(C(=O)OCC(=O)NC(=O)NC2CCCC2)c(OC)c1 | -10 | 13 | 4226 | -21 | 3 | 9 | 2
Cc1cccc(N2C(N)=C(C#N)C(C#N)(C#N)C2c2ccccc2)c1 (configuration not stated) | -3 | 0.9 | 2850 | -7 | -7 | · | ·
CS(=O)(=O)N1CCn2c1nc1ccccc12 | -1 | 1.7 | 4373 | -2 | -5 | -1 | 3
O=C(NCCCN1CCCC1=O)c1ccc2c(c1)ncn2C1CCCCC1 | 5 | 1.6 | 4324 | 1 | -10 | 0 | -3
Cn1cnnc1SCC(=O)NC(=O)NC1CCCC1 | 5 | 4.7 | 8746 | -15 | 1 | -17 | -28
O=C(NNS(=O)(=O)c1ccc(F)c(Cl)c1)c1cccc(S(=O)(=O)N2CCOCC2)c1 | -2 | 9.4 | 2360 | -29 | 12 | -5 | 2
Cn1cc(C=C2C(=O)OC3(CCCCC3)OC2=O)c2ccccc21 | 4 | 2.6 | 4295 | 4 | 8 | -5 | -4
COc1ccc(N(C(=O)/C=C/c2ccc(OC)c(OC)c2)C2=CC3CCC(C2)N3C)cc1 (configuration not stated) | 6 | 1.0 | 2494 | -7 | -3 | -1 | 2
CCC1Oc2ccccc2N(CC(=O)NCCCN2CCCC2)C1=O (configuration not stated) | 0 | 0.7 | 6448 | -20 | 9 | 3 | -4
CCN(CC)c1ccc(/C=N/OC(C)C(=O)Nc2ccc(C)cc2)cc1 (configuration not stated) | -12 | · | 2032 | 11 | · | · | ·
Cc1cc(C(=O)CSc2nnnn2-c2ccccc2)c(C)n1-c1ccc2c(c1)OCO2 | 4 | · | 2155 | -24 | · | · | ·
CCOc1ccc(NC(=O)CSc2nnc(NC(=O)C3CC3)s2)cc1 | -9 | 2.6 | 5348 | -17 | 5 | -14 | -9
CN1CCN(NC(=O)c2cccc(S(=O)(=O)N3CCCCCC3)c2)CC1 | 0 | 3.7 | 4207 | -20 | -3 | 13 | 3
O=C(CNC(=O)C1CCCCC1)Nc1cc(Cl)cc(Cl)c1 | 9 | -3.6 | 2406 | -17 | -13 | · | ·
Nc1c([N+](=O)[O-])cnnc1-c1ccccc1 | -19 | 4.4 | 2486 | -16 | 7 | -2 | 3
Cc1ccc(-c2ccc(SCC(=O)NCC3CCCO3)nn2)cc1 (configuration not stated) | 0 | -0.4 | 3267 | -7 | 10 | 6 | 10
COc1ccc(/C=N/NC(=O)C(=O)Nc2ccccn2)cc1OC | -10 | · | 3226 | -9 | · | · | ·
